Bioassay records from PubChem BioAssay.
Sa RN4220 lethal: growth inhibition of S. aureus RN4220, primary screen, OD600 | 16 h | inhibition, % (no concentration beside the values) | 0.33% of 330,000 active | AID 1259311, 2017;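 active means z-score of -3 or lower and OD600 up to 0.18 on both plates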;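 further: plate controls were untreated cells for no effect and reference antibiotic for full effect; stock transfer was 100 nL into about 80 µL; one replicate is shown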
ugtP null kill: growth inhibition of ugtP-null S. aureus, primary screen, RN4220 ugtP deletion, OD600; 16 h; some inactives read as strong as hits; growth inhibition, % (concentration not given with the values); 0.54% of 330,000 active; AID 1259309, 2017;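 active means z-score under -3 and OD600 up to 0.15 on both plates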;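 further: plate controls were untreated wells for no effect and antibiotic for full effect; wells of about 80 µL received 100 nL stock; the first replicate is given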
PrP 5UTR inh: inhibition of PrP 5' UTR reporter expression. AID 488862, 2010. cell-based PrP 5' UTR mRNA reporter, plate reader. 0.35% of 340,000 active. inhibition, % (concentration not given with the values);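 active means every replicate at 50% or more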;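 further: 0 = median of the neutral control wells; tested in H4 reporter cells; numbers are from one replicate; inactives centre near -14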
Mtb hypoxia rep: PubChem AID 1159583 | M. tuberculosis hypoxia-regulated fluorescent reporter, fluorescence | fluorescence inhibition, % (test concentration not listed) | 0.1% of 300,000 active;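 active means 35 to 45% if threefold the growth effect, above 45% if 1.5-fold the growth effect; inactive means the rest, general growth blockers included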;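 further: wells of about 50 µL received 100 nL stock; 0% = vehicle wells and 100% = reference inhibitor wells; whole bacteria with a GFP reporter of the hypoxia response; strong numbers were not always called active; many hits fall short of the cut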
BJeLR viability: MLPCN primary cell-based screen for lethality selective to Ras in HRASV12 cells; inhibition, % (test concentration not listed); BJeLR (HRASV12) viability, CellTiter-Glo ATP luminescence, 48 h; reference of the scale not given here; 0.17% of 300,000 active;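 active means replicate mean above 50%; inconclusive means above 50% but judged a plate artefact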;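 further: 50 nL library stock added to about 25 µL; numbers are from one replicate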
Autofluor counter: flagged as autofluorescent in microsphere protease counterscreen; compound autofluorescence counterscreen, microsphere flow cytometry; active compounds read high; fluorescence intensity (concentration not given with the values); 3.1% of 360,000 active; AID 624483;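 active means at least 3 SD above the mean of all compounds, about 16000 in these data; inconclusive means too few beads counted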;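 further: 100 nL of 1 mM stock went into each well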
Mtb hypoxia rep growth: recorded beside Mtb hypoxia rep, whose call it bears; growth inhibition, %; measured here: M. tuberculosis growth (absorbance);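 0% = vehicle and 100% = reference antibiotic; read after six days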
* hit, by the source's call; ? = inconclusive; · = no result given.

Short keys – A = Sa RN4220 lethal; B = ugtP null kill; C = PrP 5UTR inh; D = Mtb hypoxia rep; E = Mtb hypoxia rep growth; F = BJeLR viability; G = Autofluor counter
CN(C)/C=C(\C#N)C(=O)NN=C(CC(=O)C(F)(F)F)c1ccco1
  A: -0.8; B: 2; C: ·; D: -4; E: -1; F: ·; G: ·
COc1ccc(N2CCOCC2)c(NC(=O)c2cccc3ccccc23)c1
  A: 3.5; B: 0; C: -22; D: 2; E: 12; F: 2; G: 4022
Cc1cccc(NC(=O)c2ccc(-n3ccnc3)nc2)c1
  A: -4.3; B: 0; C: -15; D: 5; E: 11; F: -1; G: 6013
CS(=O)(=O)N(CC(=O)N1CCOCC1)c1ccccc1
  A: 1.9; B: 3; C: -8; D: 1; E: 8; F: 7; G: 4311
CCOc1cc(/C=C2\NC(=S)N(C)C2=O)ccc1OCc1ccc(C(=O)O)cc1
  A: 48; B: 41; C: -4; D: 8; E: 10; F: 4; G: 3388
O=C(CCS(=O)(=O)c1ccc(Cl)cc1)Nc1nnc(-c2ccco2)o1
  A: 3.0; B: 4; C: 5; D: 7; E: 3; F: 3; G: ?
Cc1cccc(N2CCN(C(=O)CCc3nc4ccccc4[nH]3)CC2C)c1 (stereo not drawn)
  A: -17; B: -5; C: -4; D: 2; E: 0; F: 3; G: 6555
O=c1[nH]c2ccc(NC(=S)NCc3ccccc3)cc2[nH]1
  A: 5.0; B: 5; C: -25; D: -1; E: 5; F: 3; G: 3624
O=C(c1ccccc1[N+](=O)[O-])N1CCc2ccccc2C1
  A: 6.0; B: 9; C: -11; D: 10; E: 6; F: -1; G: 2550
S=c1[nH]c2cc3ccccc3cc2[nH]1
  A: 5.7; B: -1; C: -12; D: ·; E: ·; F: -3; G: 4296
CCCCc1n[nH]c(=S)n1Cc1ccccc1
  A: 6.2; B: 16; C: -29; D: 6; E: 8; F: 3; G: 3443
Cc1ccc(S(=O)(=O)N2CCCCC2)cc1C(=O)NCc1ccc(S(N)(=O)=O)cc1
  A: 4.0; B: 8; C: -13; D: 8; E: 3; F: ·; G: 2789
Cc1ccccc1-c1nc(CN(Cc2c(C)nn(C)c2C)C2CC2)c(C)o1
  A: 4.9; B: 7; C: -10; D: 6; E: -3; F: -10; G: 3479
CCOC(=O)c1cnc(-n2nc(C)cc2C)nc1Nc1ccc(OC)cc1
  A: 2.6; B: -8; C: -7; D: 6; E: 9; F: -3; G: ?
CC(=O)OCCn1c(Br)nc2c1c(=O)[nH]c(=O)n2C
  A: 4.0; B: 0; C: -12; D: 2; E: 3; F: -11; G: 9680
O=S1(=O)CCN(Cc2ccccc2C(F)(F)F)CC1
  A: 5.4; B: 12; C: -15; D: 13; E: 1; F: 3; G: 4574
CC(=O)NC(c1cccc([N+](=O)[O-])c1)c1c(OC(C)=O)ccc2ccccc12 (stereo not drawn)
  A: 14; B: 1; C: -20; D: ·; E: ·; F: 4; G: 4287
COc1ccc(O)c(/C=N/NC(=O)CSc2nnc(C)n2-c2ccccc2)c1
  A: ·; B: ·; C: 11; D: ·; E: ·; F: 1; G: 4748
COc1ccc(Br)cc1/C=N/NC(=O)C(c1ccncc1)N1CCOCC1 (stereo not drawn)
  A: ·; B: ·; C: -28; D: ·; E: ·; F: -2; G: 2588
CCC1C(Nc2ccccc2)CC2CCN3C(=O)CCCC1C23 (stereo not drawn)
  A: 4.1; B: 4; C: ·; D: -4; E: 0; F: ·; G: ·
Clc1ccccc1OCc1nc(-c2ccc(Br)o2)no1
  A: -1.0; B: 11; C: -38; D: -1; E: 2; F: 6; G: 5611
COC(=O)c1ccc(C23CC4(C2)C(CN(C)C4c2ccccc2)C3c2ccc(Cl)nc2)cc1 (stereo not drawn)
  A: -1.4; B: -2; C: ·; D: 2; E: 3; F: ·; G: ·
O=C1CCCN1CCCN=c1c([N+](=O)[O-])nn(-c2ccc(Cl)cc2)n1O
  A: 64; B: 62; C: -42; D: 46*; E: 21*; F: 0; G: 4040
CCN(CC)S(=O)(=O)c1ccc(NCc2ccccc2)nc1
  A: 7.1; B: 10; C: -31; D: 0; E: -4; F: 1; G: 11335
CCOc1ccc(S(=O)(=O)NC(C)C(=O)NCc2ccccn2)cc1 (stereo not drawn)
  A: 1.2; B: 1; C: -6; D: -6; E: -5; F: 9; G: 4280
Cn1c(-c2ccccc2[N+](=O)[O-])[n+](C)c2ccccc21
  A: 0.9; B: 3; C: -24; D: -4; E: 6; F: 0; G: 5388
Cc1cccc(N2CCN(C(=O)CCN3C(=S)NC(C)(C)CC3C)CC2)c1C (stereo not drawn)
  A: 9.6; B: 2; C: -10; D: 2; E: 2; F: 2; G: 4475
CC1Cc2nc(SCC(N)=O)n(Cc3ccccc3)c(=O)c2S1 (stereo not drawn)
  A: 0.7; B: 9; C: -29; D: 5; E: 9; F: 1; G: 5361
Cn1c(SCc2ccc(C(=O)Nc3nccs3)cc2)nnc1-c1ccccc1
  A: 9.5; B: 1; C: -24; D: 1; E: 2; F: 0; G: 3603
Cn1c(C2CC(=O)N(Cc3ccccc3)C2)nc2ccccc21 (stereo not drawn)
  A: 5.3; B: 2; C: -26; D: 2; E: 9; F: 6; G: 6439
CC(=O)c1cn(CC(=O)Nc2c(C)cccc2C)c2ccccc12
  A: 2.3; B: -1; C: -9; D: 1; E: 13; F: 0; G: 2905
C=CCN(CC=C)C(=O)c1ccc2nc(Cc3ccc(OC)c(OC)c3)oc2c1
  A: 0.8; B: 5; C: -11; D: -2; E: 12; F: 10; G: 3278
CCCCCSc1nc(N2CCOCC2)c2c(c1C#N)CC(C)(C)OC2
  A: -8.2; B: 21; C: -23; D: ·; E: ·; F: 7; G: 4626
CC(C)(C)NC(=O)COc1ccccc1C#N
  A: 8.1; B: 10; C: -14; D: 0; E: -7; F: 4; G: 3239
COc1cc(OC)cc(C(=O)N2CCN(Cc3ccccc3C(F)(F)F)CC2)c1
  A: -0.3; B: -1; C: 2; D: 8; E: 13; F: 3; G: 11326
Cc1cc(C)cc(OCC(=O)N2CCc3ccccc3C2)c1
  A: 6.5; B: 3; C: -1; D: 20; E: 6; F: -5; G: ·
CN(C)/C=N/c1cc(=O)[nH]c(=O)n1CC1CC1
  A: ·; B: ·; C: -11; D: ·; E: ·; F: 5; G: 2799
Cc1ccc(-n2nnc3c(=O)n(CC(=O)N4CCC(C)CC4)cnc32)cc1
  A: 2.3; B: 12; C: -1; D: 0; E: -6; F: -8; G: 8045
COc1ccc(CCN(C(=O)c2cccc(F)c2)C2CC(=O)N(c3ccc(OC)cc3)C2=O)cc1 (stereo not drawn)
  A: -1.4; B: -2; C: -13; D: ·; E: ·; F: 2; G: 5833
CCCC(C)c1nnc(NC(=O)C(=O)OCC)s1 (stereo not drawn)
  A: 3.6; B: 9; C: -11; D: 3; E: 4; F: -3; G: 3429
CCOc1ccc(C2/C(=C(/O)c3ccc4c(c3)CC(C)O4)C(=O)C(=O)N2CCCn2ccnc2)cc1 (stereo not drawn)
  A: 4.3; B: 12; C: -6; D: 4; E: -6; F: -1; G: 4505
CN1CCN(CC(O)COC(c2ccc(Cl)cc2)c2ccc(Cl)cc2)CC1 (stereo not drawn)
  A: -0.9; B: -4; C: -12; D: 12; E: 9; F: -5; G: 3965
O=C(Nc1ccccc1-c1ccccc1)c1cccc(C(F)(F)F)c1
  A: 10; B: 18; C: -37; D: 3; E: 1; F: -6; G: 2065
C=C(C)CNC(=S)N/N=C(\C)c1ccc(-n2ccnc2)cc1
  A: ·; B: ·; C: -8; D: ·; E: ·; F: 3; G: 19874*
CCS(=O)(=O)n1nc(-c2ccccc2)nc1SC
  A: 4.7; B: 1; C: -23; D: 2; E: -2; F: 1; G: 7124
O=C(c1ccc(Cn2cnnn2)cc1)N1CCCC(Nc2ccc(F)cc2)C1 (stereo not drawn)
  A: ·; B: ·; C: -2; D: ·; E: ·; F: 9; G: 4585
Cc1ccc2cc(/C=N/Nc3ccc(C(=O)O)cc3)c(Cl)nc2c1
  A: ·; B: ·; C: -98; D: ·; E: ·; F: 12; G: 4333
C[C@H](CO)N1C[C@H](C)[C@@H](CN(C)Cc2ccncc2)Oc2c(NC(=O)c3ccncc3)cccc2C1=O
  A: -13; B: -8; C: -18; D: -3; E: 10; F: ·; G: 3884
CCOC(=O)c1cn(C2CC2)c2c(F)c(NCCCN(C)C)c(F)cc2c1=O
  A: 4.2; B: 7; C: -27; D: 15; E: 10; F: -3; G: 6068
Cc1ccc(S(=O)(=O)N(CC(=O)NCCSC2CCCCC2)c2ccccc2F)cc1
  A: 6.7; B: -3; C: 2; D: 9; E: 9; F: -1; G: 7647

Continuation.
Short keys – A = Sa RN4220 lethal; B = ugtP null kill; C = PrP 5UTR inh; D = Mtb hypoxia rep; E = Mtb hypoxia rep growth; F = BJeLR viability; G = Autofluor counter
O=C(CSc1n[nH]c(=O)[nH]c1=O)c1cccc([N+](=O)[O-])c1
  A: 0.8; B: 2; C: -4; D: 7; E: 7; F: 5; G: 2632
Cc1ccc(S(=O)(=O)N2CCN(CC(=O)Nc3ccc([N+](=O)[O-])cc3)CC2)cc1C
  A: 3.9; B: 0; C: 3; D: 6; E: 3; F: -8; G: 2277
CCOC(=O)c1cc2sc(C)cc2n1CC(=O)Nc1ccc2c(c1)OCCO2
  A: -5.8; B: 6; C: 0; D: 15; E: 9; F: 12; G: 8642
COc1ccc(C2C(C(C)=O)=C(O)C(=O)N2C)c(OC)c1 (stereo not drawn)
  A: -1.5; B: 5; C: -16; D: ·; E: ·; F: 8; G: 3990
CCC1NC(C(=O)O)Cc2c1[nH]c1ccccc21 (stereo not drawn)
  A: 3.1; B: 6; C: 1; D: ·; E: ·; F: 9; G: 4880
Cc1cc(C(=O)CSc2nc3ccccc3n2C)c(C)n1C
  A: 9.6; B: 5; C: -20; D: ·; E: ·; F: -3; G: 2337
CCOC(=O)c1ccccc1NC(=O)COC(=O)CCNS(=O)(=O)c1cccs1
  A: 2.6; B: 0; C: -6; D: 2; E: 3; F: ·; G: 5262
CCC1(C)Cc2ccccc2-c2[nH]c(=S)[nH]c(=O)c21 (stereo not drawn)
  A: -2.5; B: 4; C: -19; D: 6; E: -1; F: -18; G: 4249
COc1ccccc1NC(=O)CCn1c(=S)oc2ccccc21
  A: 13; B: 8; C: -19; D: -9; E: -5; F: 2; G: 2976
C/C(Cl)=C\COc1cc(C)nc2c(Br)cccc12
  A: 4.8; B: -4; C: -30; D: 25; E: 24; F: 4; G: 4129
O=C(O)c1ccccc1C(=O)c1ccc(N2CCCC2)c([N+](=O)[O-])c1
  A: -0.6; B: 1; C: -16; D: 5; E: 3; F: -1; G: 4875
CC(C)COc1ncnc2c1sc1nc3c(cc12)COC(C)(C)C3
  A: 2.7; B: 4; C: ·; D: 2; E: -1; F: -7; G: ·
O=C(COc1ccc(Cl)cc1)Nc1ccc(NC(=O)c2ccco2)cc1
  A: 2.5; B: 12; C: -30; D: 10; E: 2; F: -1; G: 3587
Cc1ccc(CNC(=O)[C@H](Cc2ccccc2)NC(=O)c2ccco2)cc1
  A: 1.1; B: 3; C: -10; D: 6; E: -5; F: ·; G: 3745

Among those listed so far, these have a thiophene ring, fused or not.
Short keys – A = Sa RN4220 lethal; B = ugtP null kill; C = PrP 5UTR inh; D = Mtb hypoxia rep; E = Mtb hypoxia rep growth; F = BJeLR viability; G = Autofluor counter
CCOC(=O)c1cc2sc(C)cc2n1CC(=O)Nc1ccc2c(c1)OCCO2
  A: -5.8; B: 6; C: 0; D: 15; E: 9; F: 12; G: 8642
CCOC(=O)c1ccccc1NC(=O)COC(=O)CCNS(=O)(=O)c1cccs1
  A: 2.6; B: 0; C: -6; D: 2; E: 3; F: ·; G: 5262
CC(C)COc1ncnc2c1sc1nc3c(cc12)COC(C)(C)C3
  A: 2.7; B: 4; C: ·; D: 2; E: -1; F: -7; G: ·
